Hsc70: Hsc70 inhibitors, probe displacement, primary screen, biochemical, fluorescence polarization (AID 568); Hsc70 fluorescence polarization, probe displacement; higher % means a stronger effect; strong numbers were not always called active; displacement, % at 20 µM, or IC50 in µM where a hit was titrated; 83,000 tested, under 10 active;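 active means displacement above 50% without optical interference and an IC50 on retest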;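 further: ATPase domain with a fluorescein-tagged ATP probe; 0% = vehicle and 100% = excess ADP; read after one hour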
WNV protease inh: inhibitors of West Nile virus NS2B-NS3 protease. z-score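 (tested at a level between 10 and 100 µM)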. AID 577. P06935. WNV NS2B-NS3 protease, fluorogenic substrate Ex360/Em465; stronger effect = lower value. hit rate 0.18% among 65,000;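 active means z-score at -3 or under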;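 further: score is relative to mean and spread of the compound wells of a plate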
Target sequence (P06935 1371-1501 limits assumed): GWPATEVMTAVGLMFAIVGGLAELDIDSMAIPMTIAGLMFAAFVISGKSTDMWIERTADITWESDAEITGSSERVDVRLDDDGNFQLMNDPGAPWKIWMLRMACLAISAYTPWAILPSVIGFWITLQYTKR
Target sequence (P06935 1502-1679 limits assumed): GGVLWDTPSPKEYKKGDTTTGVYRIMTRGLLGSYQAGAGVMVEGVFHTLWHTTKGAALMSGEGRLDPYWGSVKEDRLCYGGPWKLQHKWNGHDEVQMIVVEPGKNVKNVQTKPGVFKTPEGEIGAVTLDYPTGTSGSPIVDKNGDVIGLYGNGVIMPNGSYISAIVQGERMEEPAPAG
MT1-MMP reporter: inhibitors of MT1-MMP promoter transcription, cell-based, luciferase reporter, luminescence (AID 618). MT1-MMP promoter luciferase reporter cells, luminescence. calls from a first round at 10 µM; hits with a dose series show EC50 in µM. hit rate 0.62% among 87,000;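 active means over half of the reporter light lost at 10 µM or EC50 under 50 µM; inactive means the rest and hits that failed the dose series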;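 further: actives suppress MT1-MMP promoter-driven transcription so potencies describe inhibitors; HT1080 fibrosarcoma cells; overnight exposure; toxic or luciferase-blocking compounds were not removed from the actives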
* = called active by the depositor; i = inactive; · = not tested or not shown.

SMILES	Hsc70	WNV protease inh	MT1-MMP reporter
CCC12CN3CC(CC)(CN(C1)C3c1ccccc1Cl)C2O (centres undefined)	4.7%	-1.1	i
CCS(=O)(=O)N1CCCC(C(=O)NCCN(C)Cc2ccccc2)C1 (centres undefined)	5.7%	0.86	i
COc1ccccc1N1CCN(S(=O)(=O)/C=C/c2ccccc2)CC1	5.4%	·	i
Cc1cc(C)n(Cc2ccccc2F)c(=O)c1C#N	4.8%	-0.44	i
COc1cc2c(cc1OC)C(C(=O)NCC1COc3ccccc3O1)C(c1cccnc1)N(C)C2=O (centres undefined)	1.0%	-0.18	i
Cc1nc2ccccc2n1CC(=O)NCc1ccccc1	-0.3%	0.55	i
O=C(COC(=O)C1=COCCO1)NCCCc1ccccc1	0.4%	0.39	i
O=S(=O)(Cc1ccccc1)N1CCCCCC1	-2.3%	-0.01	i
Cc1cc(C(=O)CSc2nnc(-c3ccccc3)o2)c(C)n1CC1COc2ccccc2O1 (centres undefined)	3.5%	·	i
CCc1cccc(NC(=O)NC2CCCCC2)c1	-0.2%	-0.54	i
Cc1ccc(CCN2CC(C(=O)NCCN3CCCCCC3)CC2=O)cc1 (centres undefined)	-3.3%	-0.32	i
COc1ccc(CCNC(=O)c2[nH]c(C)c(C(C)=O)c2C)cc1	4.5%	·	i
CCOC(=O)CCCNC(=O)CCNC(=O)c1ccc(OC)cc1	5.7%	1.1	i
Nc1nnc(C(=O)c2ccccc2N)s1	-2.0%	-1.2	i
O=C(C1CCCCC1)N1CCN(S(=O)(=O)c2ccc(Br)cc2)CC1	-1.3%	-0.55	i
O=c1c(F)cn(C2CCCO2)c(=O)n1Cc1ccccc1F (centres undefined)	1.7%	-1.2	i
CCCSc1nnc(-c2cccc(S(=O)(=O)N(C)C)c2)n1-c1cc(OC)ccc1OC	-4.0%	0.17	i
COc1ccc(-c2nc(C#N)c(NCc3ccccc3Cl)o2)cc1OC	-1.0%	0.66	i
CCN1CC2CCCC3(C1)C(=O)NC1(CCCCC1)N=C23 (centres undefined)	-3.7%	1.2	i
Cc1nccn1Cc1cccc2ccccc12	1.6%	·	i
CC1CN(c2cc(-c3ccccc3)c3ccccc3n2)CC(C)O1 (centres undefined)	-1.2%	·	i
COc1ccc(OCCOCC(O)CN2CCOCC2)cc1 (centres undefined)	-0.3%	2	i
CN(C)/C=C1\C(=O)Nc2ccccc21	9.2%	·	i
Cc1nc(C)c(C(=O)Nc2ccc(C)c(F)c2)o1	-11%	-0.64	i
CCc1ccc(NC(=O)CSc2nnc(Cc3cccn3C)n2-c2ccc(OC)cc2)cc1	2.3%	-1	i
CCOCc1nnc(NC(=O)COC)s1	1.2%	-0.05	i
Cc1ccc2cc(CCNS(=O)(=O)c3ccc(F)cc3)c(=O)[nH]c2c1	4.7%	-0.62	i
Cn1c(SCC(=O)Nc2ccc(N3CCOCC3)cc2)nnc1-c1ccccc1	-1.0%	-0.24	i
O=C(Nc1ccccc1C(=O)Nc1ccc2c(c1)OCO2)c1ccco1	0.8%	·	i
COc1ccc(CN(C)C2CCCCC2)cc1	-2.6%	-0.66	i
CCOC(=O)N1CCC(NC(=O)c2ccc(OC)c(CN3CC(=O)N4CCCC4C3=O)c2)CC1 (centres undefined)	-4.8%	-0.88	i
CCN(CC)S(=O)(=O)c1cccc(C(=O)Nc2nncs2)c1	3.1%	-0.31	i
CCCCCCSC1=C(C#N)C(c2ccc(C)o2)CC(=O)N1 (centres undefined)	-7.2%	0.56	i
CN(C)/C=C/C(=O)c1nnn(C2CCCCC2)c1NC1CCCCC1	-2.3%	-1.5	i
CC(=O)N1C(=O)N(C)C2C1N(C(C)=O)C(=O)N2C (centres undefined)	4.2%	0.62	i
O=C(COC(=O)c1ccccn1)Nc1cc(Cl)ccc1Cl	0.1%	-0.15	i
CC(C)(C)C(=O)Oc1cc(N)n(S(=O)(=O)c2ccc(F)cc2)n1	2.6%	-1.5	i
CCc1nnc(NC(=O)c2ccc(OC)cc2OC)s1	5.7%	0.96	6.1µM*
O=C(NCc1cccs1)C1CCN(C(=O)NCc2ccccc2)CC1	-2.3%	·	i
Cc1cc(C)nc(SCCS(=O)(=O)Cc2ccccc2)n1	-0.2%	-1	i
O=C(NC1CC2CCC(C1)N2C(=O)NC1CCCCC1)NC12CC3CC(CC(C3)C1)C2 (centres undefined)	-0.2%	-0.81	i
COc1ccc(CNC(=O)c2sc(=S)n(-c3ccc(OC)cc3)c2N)cc1	2.5%	·	i
O=C(COc1ccc(-c2nnco2)cc1)NC1CCCc2ccccc21 (centres undefined)	4.5%	-0.87	i
CCOCCCNC(=O)c1ccc(CS(=O)(=O)Cc2ccc(C)cc2)o1	2.1%	-1.2	i
Cn1c(=O)[nH]c(=O)c2c1nc(SCCN1CCOCC1)n2CCCc1ccccc1	0.9%	-0.73	i
CCOC(=O)CSc1nc2ccccc2c(=O)n1C	-11%	0.18	i
CC(C)OC(=O)CN1C(=O)c2ccccc2C1=O	1.8%	-0.91	i
CN(C)c1ccc(C(C(=O)NC(C)(C)C)N(C(=O)c2csnn2)C2CC2)cc1 (centres undefined)	1.2%	-0.66	i
O=C(CN1CCN(C(=O)c2ccccc2)CC1)Nc1ncc(Br)cc1Br	-0.3%	1	i
O=C(NCCO)c1cc2ccccc2c(=O)s1	-0.5%	0.31	i
CCOc1ccc(C(=O)NCCN(C)C)cc1	-0.9%	-0.17	i
O=C(NC(c1ccccc1)c1ccccc1)c1ccc(S(=O)(=O)C(F)F)cc1	-0.7%	·	i
CCOC(=O)N1CCC(N(CCOC)C(=O)Nc2ccc(Cl)cc2)CC1	-1.0%	1.6	i
CCOC(=O)c1cc(NC(=O)Nc2ccccc2OC)c(C)nc1C	-4.2%	·	i
O=C(CCn1cnc2ccccc2c1=O)Nc1nc2c(s1)CCCC2	-6.1%	0.42	i
COc1ccc(OC)c(NC(=O)C2CC(=O)n3ncnc3N2)c1 (centres undefined)	3.6%	0.18	i
O=C(O)c1ccc(COc2cccc(CO)c2)cc1	4.0%	2.1	i
CCCOc1ccc(N2C(=O)C3C(C(C)C)NC4(C(=O)c5ccccc5C4=O)C3C2=O)cc1 (centres undefined)	7.3%	·	i
COc1ccc(CNC(=O)C(c2ccco2)N(C(=O)c2csnn2)c2cccc(C)c2C)cc1 (centres undefined)	2.3%	·	i
COC(=O)CSc1nnc(CNC(=O)c2cccs2)n1-c1cccc(C)c1	-3.0%	-0.14	i

Other results:
SMILES	Hsc70	WNV protease inh	MT1-MMP reporter
O=C1CN(C(=O)CSc2nncn2-c2ccccc2)c2ccccc2N1	-0.4%	-1.7	i
CCc1c(C)nc(N2CCN(Cc3ccccc3)CC2)[nH]c1=O	-3.0%	-0.06	i
O=S(=O)(NC1CCCC1)c1ccc(S(=O)(=O)N2CCCN(Cc3ccccc3)C2)cc1	-6.6%	-0.0012	i
CCCOc1ccc(-c2nc(C#N)c(N3CCN(C)CC3)o2)cc1	-0.8%	1.6	i
CCC(C)NC(=O)C1(C)CCC(=O)N1CCc1ccc(OC)c(OC)c1 (centres undefined)	-2.3%	-1.2	i
Cc1cccc(C)c1OC(=O)CSc1nnc(-c2ccccc2O)o1	0.4%	·	i
CC(=O)C1C(c2ccc(C)cc2)c2c(n[nH]c2C)CC1(C)O (centres undefined)	-2.2%	·	i
N#Cc1c(N)c(C(=O)c2ccccc2)n2c1CCCC2	4.4%	0.4	i
O=C(OCn1nnc2ccccc2c1=O)c1cc2ccccc2o1	-1.2%	-0.25	i
C/C(=N\NC(=O)CNc1ccccc1Cl)C(C)(C)C	1.7%	·	i
CSc1nc(-c2ccco2)nn1C(=O)c1ccc(C)cc1	-3.9%	-0.85	i
COc1cc(C)c(S(=O)(=O)Nc2ccccc2F)cc1C	3.3%	0.98	i
O=C(COC(=O)CSCC(=O)N1CCCCC1)NCc1ccc(F)cc1	-1.1%	0.8	i
Cc1noc(C)c1S(=O)(=O)N1CCN(C(c2ccccc2)c2ccc(Cl)cc2)CC1 (centres undefined)	-3.2%	-0.19	i
Cc1noc(NS(=O)(=O)c2ccc(NC(=O)CSc3nc4ccccc4[nH]3)cc2)c1C	4.1%	0.34	i
Cc1ccc(CN(Cc2cc3cccc(C)c3[nH]c2=O)C(=O)N(C)C)cc1	4.3%	1.3	i
COc1ccc(N2CCN(C3CC(=O)N(c4ccc5c(c4)OCCO5)C3=O)CC2)cc1 (centres undefined)	-0.6%	0.22	i
Cc1cc(C)nc(SCNC(=O)c2ccc(Cl)cc2)n1	-1.2%	·	i
CCCCCNC(=O)c1ccc2c(=O)n(CC3CCCO3)c(=O)[nH]c2c1 (centres undefined)	-1.5%	0.13	i
Cc1ccc(C(=O)NCc2ccc3c(c2)OCO3)cc1S(=O)(=O)N1CCCCC1	-2.5%	-0.74	i
Fc1ccc(CSc2nnc(-c3cnccn3)n2Cc2ccco2)cc1	-3.2%	0.4	i
CCOC(=O)c1c2c(n(C)c1C)C(=O)C(=O)c1ccc(Br)cc1-2	0.7%	·	i
COC(=O)c1ccc(Oc2ccc3nnc(C)n3n2)cc1	-3.1%	-0.01	i
CCn1cnc2cc(NCc3cccc(OC)c3O)ccc21	8.9%	-0.16	i
COc1ccc(S(=O)(=O)NC2CCCCC2)cc1C	5.1%	0.05	i
COCCOC(=O)c1c(NC(=O)CN2CCOCC2)sc(C(N)=O)c1C	3.6%	-0.25	i
O=C(CC(C(=O)O)C1CCCO1)Nc1cccc(C(F)(F)F)c1 (centres undefined)	-3.5%	0.4	i
CCC(=O)N(Cc1cc2ccc(C)cc2n2nnnc12)C1CCCCC1	0.7%	·	i
Cc1cccc(NCc2nc3ccccc3n2C)c1	-1.3%	·	i
CCC(=O)Nc1c2c(nn1-c1cccc(Cl)c1)CSC2	5.4%	-0.21	i
CCCC1Cc2nc(N3CCCCC3)c(C#N)cc2CO1 (centres undefined)	0.7%	1.7	i
Cc1nc(SCc2cccc(Oc3ccccc3)c2)n[nH]1	7.3%	·	i
CCOC(=O)c1cnn(-c2ncnc3sc4c(c23)CCC4)c1N	-2.1%	-0.29	i
CCN(CC)CCn1c(O)c(N=O)c2ccccc21	1.1%	-0.41	i
O=C(NCC(c1cccnc1)N1CCN(c2ccc(F)cc2)CC1)OCc1ccccc1 (centres undefined)	-2.6%	-0.3	i
O=C(NC1CCCC1)c1csc2c1CCCC2	-2.0%	-0.3	i

Copied from above for reference:
SMILES	Hsc70	WNV protease inh	MT1-MMP reporter
CCC(=O)Nc1c2c(nn1-c1cccc(Cl)c1)CSC2	5.4%	-0.21	i
CCCC1Cc2nc(N3CCCCC3)c(C#N)cc2CO1 (centres undefined)	0.7%	1.7	i
Cc1nc(SCc2cccc(Oc3ccccc3)c2)n[nH]1	7.3%	·	i
CCOC(=O)c1cnn(-c2ncnc3sc4c(c23)CCC4)c1N	-2.1%	-0.29	i
CCN(CC)CCn1c(O)c(N=O)c2ccccc21	1.1%	-0.41	i
O=C(NCC(c1cccnc1)N1CCN(c2ccc(F)cc2)CC1)OCc1ccccc1 (centres undefined)	-2.6%	-0.3	i
O=C(NC1CCCC1)c1csc2c1CCCC2	-2.0%	-0.3	i

Following part:
SMILES	Hsc70	WNV protease inh	MT1-MMP reporter
COc1ccccc1-c1nnc(SCC(=O)Nc2ccccc2)o1	5.0%	-0.00041	i
CCOc1nc(C)nc(NC(=O)NS(=O)(=O)c2ccccc2Cl)n1	5.3%	·	i
CCOC(=O)C(CCCOc1ccc(C(C)CC)cc1)C(=O)OCC (centres undefined)	-1.3%	·	i
Cc1cc(Oc2ccc(Cl)cc2)nc(-c2ccccc2O)n1	-3.4%	0.23	i
Cc1cccc(NC(=O)Nc2cccc(Oc3c(F)c(F)c(F)c(F)c3F)c2)c1	0.5%	·	i
O=C(CSc1nnnn1-c1cccc2c1CCCC2)N1CCCCC1	0.7%	·	i
CNC(=O)c1cc2c(s1)CCCCCC2	1.7%	-0.51	i
CCCc1nnc(NC(=O)CN2C(=O)C3C4C=CC(C4)C3C2=O)s1 (centres undefined)	1.1%	0.61	i
CCOC(=O)c1ccc(NC(=O)CCc2c(C)nc3ncnn3c2C)cc1	-0.2%	-0.28	i
COc1ccc(-n2ncc3c(NCc4ccc5c(c4)OCO5)ncnc32)cc1	-4.8%	-0.81	i
O=C(O)c1sccc1Oc1ccc(F)cc1[N+](=O)[O-]	5.0%	·	i
CC1Cc2cc(/C(O)=C3/C(=O)C(=O)N(CCN4CCOCC4)C3c3cccc(Cl)c3)ccc2O1 (centres undefined)	0.4%	-0.09	i
O=C1CN(c2ccc(Br)cc2)C(=O)N1CC(=O)N1CCCc2ccccc21	0.3%	-0.0016	i
O=C(C(c1ccccc1)c1ccccc1)N1CCCc2ccccc21	-0.5%	·	i
C=CCn1c(=O)c2c(nc(Br)n2Cc2ccccc2Cl)n(C)c1=O	0.7%	·	i

6 structures already listed, sorted by heavy-atom count, smallest number first:
SMILES	Hsc70	WNV protease inh	MT1-MMP reporter
O=C(O)c1sccc1Oc1ccc(F)cc1[N+](=O)[O-]	5.0%	·	i
C=CCn1c(=O)c2c(nc(Br)n2Cc2ccccc2Cl)n(C)c1=O	0.7%	·	i
CCOC(=O)C(CCCOc1ccc(C(C)CC)cc1)C(=O)OCC (centres undefined)	-1.3%	·	i
O=C1CN(c2ccc(Br)cc2)C(=O)N1CC(=O)N1CCCc2ccccc21	0.3%	-0.0016	i
COc1ccc(-n2ncc3c(NCc4ccc5c(c4)OCO5)ncnc32)cc1	-4.8%	-0.81	i
CC1Cc2cc(/C(O)=C3/C(=O)C(=O)N(CCN4CCOCC4)C3c3cccc(Cl)c3)ccc2O1 (centres undefined)	0.4%	-0.09	i
